Bioassay records from PubChem BioAssay.
rRNA inh HTS = inhibitors of bacterial rRNA selective over humanized ribosomes. E. coli WT GFP vs humanized-ribosome RFP mutants, fluorescence, 24 h; active compounds read low; DMSO median 0, no signal -100. GFP signal change (wild-type ribosome), % (no concentration beside the values). 1.6% of 350,000 active;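 active means significant combined selectivity score with lowered wild-type GFP, culture density cut under 30%, mutant RFP and density less affected; inactive means any of these conditions unmet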; further: one replicate is shown; some compounds called inactive have numbers as strong as hits
MLL AF4-AF9 inh = blocks AF4 peptide binding to human AF9. P42568. AlphaScreen, biotin-AF4 peptide binding to FLAG-AF9. inhibition, % at 10 µM. 0.47% of 350,000 active. AID 651704;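 active means every replicate reaching a set inhibition limit, whatever the replicate mean, cut at about 25% in these data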;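 further: 0% = plate neutral control median and 100% = total signal loss; the record names both 10 and 1 µM as test concentration; the first replicate is given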
Target sequence (P42568 whole entry, looked up): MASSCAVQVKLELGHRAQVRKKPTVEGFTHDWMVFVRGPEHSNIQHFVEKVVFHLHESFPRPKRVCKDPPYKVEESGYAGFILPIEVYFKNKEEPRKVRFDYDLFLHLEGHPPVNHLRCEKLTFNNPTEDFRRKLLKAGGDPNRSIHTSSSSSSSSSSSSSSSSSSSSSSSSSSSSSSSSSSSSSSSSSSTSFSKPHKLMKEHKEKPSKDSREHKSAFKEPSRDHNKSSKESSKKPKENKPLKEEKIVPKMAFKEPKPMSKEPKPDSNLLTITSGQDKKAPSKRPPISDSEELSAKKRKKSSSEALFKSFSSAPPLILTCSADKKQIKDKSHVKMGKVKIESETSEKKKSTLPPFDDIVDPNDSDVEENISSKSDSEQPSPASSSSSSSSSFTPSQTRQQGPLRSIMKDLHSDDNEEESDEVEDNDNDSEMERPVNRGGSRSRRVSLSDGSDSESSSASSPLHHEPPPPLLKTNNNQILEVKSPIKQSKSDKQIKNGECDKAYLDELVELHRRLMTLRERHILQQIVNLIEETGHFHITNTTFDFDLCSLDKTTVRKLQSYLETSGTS
FGF22 binding = shifts melting point of recombinant human FGF22 | Q9HCT0 | recombinant FGF22 thermal shift, SYPRO orange fluorescence; percent of sucrose octasulfate shift, DMSO zero | calls only at 9.99 µM | AID 651658 | 1.5% of 340,000 active;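 active means melting point raised past a set limit in the mean and every replicate; three in four hits are not shown here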
Target sequence (Q9HCT0 whole entry, looked up): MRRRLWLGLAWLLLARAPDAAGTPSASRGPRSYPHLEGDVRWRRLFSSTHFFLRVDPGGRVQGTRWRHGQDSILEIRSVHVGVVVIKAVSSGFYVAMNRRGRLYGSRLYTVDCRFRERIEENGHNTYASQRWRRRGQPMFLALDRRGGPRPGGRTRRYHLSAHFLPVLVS
rRNA inh HTS OD600 = recorded beside rRNA inh HTS, whose call it bears; OD600 change, %; measured here: OD600 growth;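 optical density of the mix in the first replicate; 0 = DMSO median and -100 = no signal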
rRNA inh HTS RFP = second read-out of rRNA inh HTS, no call of its own (marks repeat the call); RFP signal change, %; measured here: RFP humanized mutant strains;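 first replicate; 0 = DMSO median and -100 = no signal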
An asterisk follows results filed as active; i = inactive; & = joins results of further samples.

smiles	rRNA inh HTS	rRNA inh HTS OD600	rRNA inh HTS RFP	MLL AF4-AF9 inh	FGF22 binding
CN(C)C(=O)C[C@@H]1C[C@H]2c3cc(NC(=O)Nc4ccc(C(F)(F)F)cc4)ccc3O[C@H]2[C@@H](CO)O1	0.0	-4.4	0.2	1.1	i
CC1(C(=O)NS(=O)(=O)Cc2ccccc2)CCN1C(=O)Cc1ccccc1 (configuration not stated)	12.6	8.9	-0.2	-0.5	i
C[C@H]1CCCCO[C@@H](CN(C)S(=O)(=O)c2cn(C)cn2)[C@@H](C)CN([C@@H](C)CO)C(=O)c2cc(NC(=O)CCC(F)(F)F)ccc2O1	-1.4	-1.1	-0.2	-0.9	i
C[C@@H]1CCCCO[C@H](CN(C)C(=O)NC2CCCCC2)[C@@H](C)CN([C@H](C)CO)C(=O)c2cc(NS(=O)(=O)c3ccc(Cl)cc3)ccc2O1	8.6	4.3	0.3	-3.2	i
CCS(=O)(=O)Nc1ccc2c(c1)C(=O)N(C)[C@@H]1CC[C@H](CC(=O)NCc3ccccc3F)O[C@@H]1CO2	-1.0	8.5	0.0	-19.6	i
C[C@@H]1CN([C@@H](C)CO)C(=O)c2cc(NS(=O)(=O)c3cccs3)ccc2O[C@@H]1CN(C)Cc1ccc(C(=O)O)cc1	2.1	2.3	-0.5	-1.4	i
Cc1noc(C)c1NC(=O)Nc1ccc2c(c1)CC(=O)N([C@H](C)CO)C[C@H](C)[C@@H](CN(C)Cc1ccc(C(=O)Nc3ccccc3N)cc1)O2	-0.7	4.8	-2.7	-3.1	i
O=C1NC[C@H](CCCCN2C[C@H](Cc3ccccc3)N(CCC3CCCCC3)C(=O)C2=O)N(CC2CCCCC2)C1=O	23.9	13.6	1.0	-1.4	i
COc1ccc(-c2cnc3c(NC=O)cc(-c4ccc(S(C)(=O)=O)cc4)cn23)cc1OC	9.4	17.6	8.9	-0.1	i
C[C@@H]1CCCCO[C@H](CN(C)S(C)(=O)=O)[C@@H](C)CN([C@@H](C)CO)C(=O)c2cc(NC(=O)Cc3ccccc3)ccc2O1	-0.1	4.4	-3.7	-0.9	i
CC(C)[C@@H](C)/C=C/[C@@H](C)[C@H]1CC[C@@H]2[C@]1(C)CCC1[C@]23C=C[C@]2(C[C@@H](O)CC[C@]12C)N(C(=O)Cc1ccccc1)O3 (some centres not stated)	10.2	16.4	13.0	-1.7	i
N#C[C@H]1[C@H](c2ccccc2)[C@@H](CO)N1C(=O)Cc1ccccn1	4.8	2.1	-1.8	-1.7	i
Cc1cccc(S(=O)(=O)N(C)C[C@@H]2OCc3cnnn3CCCC(=O)N([C@H](C)CO)C[C@@H]2C)c1	2.4&-0.5	6.7&7.7	4.0&-0.3	-2.2&-1.5&-2.0	i
CNC[C@H]1Oc2c(NC(=O)Nc3ccc(OC)cc3)cccc2C(=O)N([C@H](C)CO)C[C@@H]1C	2.6	9.7	-0.6	0.8	i
CCS(=O)(=O)N1CC2(C1)CN(S(=O)(=O)c1cccc(OC)c1)[C@H](CO)c1[nH]c3cc(OC)ccc3c12	-7.1	-16.6	2.0	-2.4	i
Cn1cnc([N+](=O)[O-])c1S(=O)(=O)Oc1ccccc1	37.1	22.1	-6.2	-3.2	i
CC(C)NC(=O)N[C@H]1C=C[C@H](CC(=O)NC2Cc3ccccc3C2)O[C@H]1CO	1.4	3.8	-0.7	-6.9	i
O=C([C@@H]1[C@@H](CO)[C@@H]2Cn3c(ccc(-c4ccncc4)c3=O)[C@H]1N2Cc1cccnc1)N1CCOCC1	0.7	-3.9	-2.1	-1.5	i
C[C@@H]1CN([C@@H](C)CO)C(=O)c2cc(Br)cnc2O[C@H]1CN(C)Cc1cccnc1	-1.3&5.3	4.7&4.4	1.1&0.9	-0.5&-1.5	i
COc1ccc(C(C)=O)cc1CN1C(=O)C(C)ON=C1c1ccccn1 (configuration not stated)	10.2	4.2	-1.8	-9.9	i
CC(C)(C)OC(=O)C[C@@H]1C/C=C\C[C@H](CC(=O)N(CCO)Cc2ccccc2)C(=O)NCCOC1=O	-0.5	2.2	1.7	-3.0	i
CCCNC(=O)N[C@@H]1CC[C@@H](CCNS(=O)(=O)c2cccc(F)c2)O[C@H]1CO	0.9	6.9	-1.3	0.5	i
O=S1(=O)c2c(cccc2N2CCCCC2)O[C@H](COCc2ccccc2)CN1C1CC1	30.0	13.9	21.8	-2.5	i
COc1ccc(CC(N)c2csc(NC(=O)c3cccs3)n2)cc1 (configuration not stated)	-3.3	-1.4	-0.9	3.0	i
C[C@@H]1CN([C@H](C)CO)C(=O)c2cc(NC(=O)CCN3CCOCC3)ccc2O[C@@H]1CN(C)Cc1ccc(C(=O)O)cc1	3.1	5.7	-2.4	-0.5	i
CO[C@H]1CN(C)C(=O)c2cc(NC(=O)c3ccc(F)cc3)ccc2OC[C@@H](C)N(C(=O)c2ccc(F)cc2)C[C@@H]1C	-1.4	-6.4	0.0	0.8	i
COc1ccc(NC(=O)Nc2ccc3c(c2)C(=O)N([C@@H](C)CO)C[C@@H](C)[C@@H](CN(C)S(=O)(=O)c2ccc(C)cc2)O3)cc1	-2.4	-27.7	-6.2	3.2	i
C[C@@H]1CN([C@@H](C)CO)C(=O)Cc2cc(NC(=O)Cn3cnnn3)ccc2O[C@H]1CN(C)C(=O)Nc1ccc(C(F)(F)F)cc1	1.0	4.2	-0.2	-1.0	i
C[C@H]1CN([C@@H](C)CO)C(=O)c2cc(NC(=O)C3CCCCC3)ccc2O[C@H]1CN(C)Cc1ccc(Cl)c(Cl)c1	-1.2	2.4	-1.4	-1.9	i
CC(=O)N(C)C[C@@H]1Oc2cc(Br)ccc2S(=O)(=O)N([C@H](C)CO)C[C@H]1C	3.3	-7.0	-0.5	-6.7	i

Filtered by structure: those above with bromine
smiles	rRNA inh HTS	rRNA inh HTS OD600	rRNA inh HTS RFP	MLL AF4-AF9 inh	FGF22 binding
C[C@@H]1CN([C@@H](C)CO)C(=O)c2cc(Br)cnc2O[C@H]1CN(C)Cc1cccnc1	-1.3&5.3	4.7&4.4	1.1&0.9	-0.5&-1.5	i
CC(=O)N(C)C[C@@H]1Oc2cc(Br)ccc2S(=O)(=O)N([C@H](C)CO)C[C@H]1C	3.3	-7.0	-0.5	-6.7	i

Remaining list, next part
smiles	rRNA inh HTS	rRNA inh HTS OD600	rRNA inh HTS RFP	MLL AF4-AF9 inh	FGF22 binding
CCNC(=O)C[C@@H]1CC[C@H]2[C@@H](COc3ccc(NC(=O)Nc4ccccc4C)cc3C(=O)N2C)O1	3.3	1.4	1.5	-0.4	i
CN(C)CC(=O)N1[C@@H](C#N)[C@H](c2ccc(C#CC3CCCCC3)cc2)[C@@H]1CO	-53.4	-73.8	-12.6	1.3	i
COc1ccc(NC(=O)C2Cc3c(-c4ccc(NC(C)=O)cc4)ccnc3O2)cc1OC (configuration not stated)	1.8	-7.3	-0.9	-2.6	i
COc1ccc(S(=O)(=O)N(C)C[C@H]2Oc3c(NC(=O)c4cnccn4)cccc3C(=O)N([C@@H](C)CO)C[C@@H]2C)cc1	-2.3	-3.8	-0.2	-1.3	i
CCS(=O)(=O)Nc1ccc2c(c1)C(=O)N(C)C[C@H](OC)[C@@H](C)CN(C(C)=O)[C@@H](C)CO2	0.1	0.7	-1.6	2.4	i
CO[C@@H]1CN(C)C(=O)c2ccc(NC(=O)NC(C)C)cc2OC[C@@H](C)N(Cc2ccccn2)C[C@@H]1C	-4.3	4.0	-0.9	-1.3	i
CNC[C@H]1OCCCC[C@@H](C)Oc2ccc(NC(=O)CCCN(C)C)cc2C(=O)N([C@H](C)CO)C[C@@H]1C	-1.6	1.2	-1.5	-9.4	i
C[C@@H]1CN([C@@H](C)CO)C(=O)c2cccc(NC(=O)c3ccncc3)c2O[C@@H]1CN(C)Cc1ccc2c(c1)OCO2	0.6	5.7	-3.1	0.5	i
CC1(c2ccccc2)NC(=O)N(CC(=O)N2CCN(S(=O)(=O)c3cccc(C(F)(F)F)c3)CC2)C1=O (configuration not stated)	-4.1	-3.8	-2.0	-0.7	i
CC(=O)Nc1ccc2c(c1)C(=O)N(C)[C@@H]1CC[C@@H](CC(=O)NCc3ccc(Cl)cc3)O[C@H]1CO2	1.8	1.9	1.5	0.5	i
CO[C@@H]1CN(C)C(=O)c2ccc(NS(=O)(=O)c3ccccc3Cl)cc2OC[C@@H](C)NC[C@@H]1C	2.5	7.6	-1.5	-3.4	i
CC(C)NC(=O)N(C)C[C@H]1OCCCC[C@@H](C)Oc2ccc(NC(=O)Nc3ccccc3)cc2C(=O)N([C@@H](C)CO)C[C@H]1C	-2.9	-7.1	3.6	1.7	i
CC(C)Cn1cnc2c(SCc3ccccc3Cl)nc(N)nc21	-37.2	-38.4	-8.4	-6.0	i
CC(C)CC#Cc1cnc2c(c1)C(=O)N([C@H](C)CO)C[C@H](C)[C@@H](CN(C)S(C)(=O)=O)O2	2.1	14.6	-1.8	-1.9	i
C[C@H](NC(=O)N(C)C[C@H]1OCc2ccccc2-c2c(n(C)c3ccccc23)C(=O)N([C@@H](C)CO)C[C@H]1C)c1ccccc1	2.6	4.2	1.4	3.0	i
COc1cccc(CN2CC3(CCN(C)CC3)c3c(n(C)c4cc(OC)ccc34)[C@@H]2CO)c1	4.0	11.1	0.0	-0.8	i
COc1cccc(CN2C(=NC(=O)C3CCCO3)SC3CS(=O)(=O)CC32)c1 (configuration not stated)	4.6	9.9	-2.3	-1.6	i
C[C@@H]1CN([C@@H](C)CO)S(=O)(=O)c2ccc(-c3ccc(C#N)cc3)cc2O[C@@H]1CN(C)Cc1cccc(F)c1	-1.5	-0.2	-1.6	-0.5	i
CC(c1ccccc1)C(OC(=O)c1cccc([N+](=O)[O-])c1C(=O)O)c1ccccc1 (configuration not stated)	-17.1	-21.2	0.8	1.5	i
COc1ccc2c3c([nH]c2c1)[C@H](CO)N(C(C)=O)CC31CN(C(=O)CN2CCOCC2)C1	-0.4	3.8	-6.2	3.0	i
Cc1ccc(S(=O)(=O)NN=C2CCc3ccccc32)cc1	2.8	8.4	4.5	-1.1	i
CC(C)CC#Cc1ccc2c(c1)O[C@H](CN(C)S(C)(=O)=O)[C@@H](C)CN([C@@H](C)CO)S2(=O)=O	-2.3	-17.8	0.8	3.9	i
C[C@@H]1CN([C@@H](C)CO)C(=O)Cc2cc(NC(=O)Cc3ccccc3)ccc2O[C@H]1CN(C)Cc1ccc2c(c1)OCO2	-2.5	-14.4	1.1	6.4	i
CCCC(=O)Nc1ccc2c(c1)C(=O)N(C)[C@@H]1CC[C@H](CC(=O)NCc3ccccc3)O[C@@H]1CO2	-1.7	1.4	1.3	-1.0	i
O=C(C[C@@H]1CC[C@H](NC(=O)Nc2ccc3c(c2)OCO3)[C@H](CO)O1)NCCCN1CCOCC1	4.8	7.7	-0.1	-0.5	i
CC=Cc1ccc2n(c1=O)C[C@H]1[C@H](CO)[C@@H](C(=O)NCC3CCCCC3)[C@@H]2N1C(C)=O (mixture of isomers)	1.8	-2.1	0.6	-8.1	i
CCOc1ccc(S(=O)(=O)NCCC(=O)NCC(c2ccc(OC)cc2)N2CCOCC2)cc1 (configuration not stated)	7.2	7.3	-4.7	5.1	i
COCC#Cc1ccc2c(c1)O[C@H](CN(C)C(=O)CN(C)C)[C@H](C)CN([C@H](C)CO)S2(=O)=O	7.7	6.6	-2.2	-3.1	i
Cc1cc(NC(=O)C(C)SCC(=O)NCc2ccc(F)cc2)no1 (configuration not stated)	7.7	9.6	-2.5	-0.9	i
COC(=O)C[C@H]1C=C[C@H](NC(=O)c2ccccc2)[C@H](CO)O1	0.8	7.8	-1.4	-1.1	i
CCCCCNC(=O)C(c1cccc2ccccc12)n1c(=O)c(-c2ccccc2)nc2ccccc21 (configuration not stated)	5.3	7.0	0.4	0.1	i
C[C@@H]1CCCCO[C@@H](CN(C)S(=O)(=O)c2ccc(Cl)cc2)[C@H](C)CN([C@H](C)CO)C(=O)c2cc(NC(=O)CCC(F)(F)F)ccc2O1	0.8	-3.8	-3.4	2.8	i
COc1ccc2c3c([nH]c2c1)[C@H](CO)N(C(=O)c1ccccc1)CC31CN(S(=O)(=O)c2cccs2)C1	-5.8	-25.3	-0.8	3.9	i
C=CCN1C(=O)N(Cc2ccccc2)c2ccccc2S1(=O)=O	-42.8	-63.3	-10.8	-1.3	i
C[C@H](O)C#Cc1cnc2c(c1)C(=O)N([C@@H](C)CO)C[C@@H](C)[C@H](CN(C)Cc1cccc(F)c1)O2	0.6	2.3	-1.5	-2.0	i
Cc1cc(C(=O)Nc2cccc3c2O[C@@H](CN(C)C(=O)Nc2c(C)noc2C)[C@@H](C)CN([C@@H](C)CO)C3=O)n(C)n1	-0.7	7.9	0.4	-4.8	i
N#C[C@H]1[C@@H](c2ccc(C#CC3CCCCC3)cc2)[C@H](CO)N1C(=O)Cc1ccccn1	-43.9	-70.0	-4.9	4.4	i

A portion of the library; the hit share may differ from the screen's.
